Screening data deposited in PubChem by Broad Institute.
Vaccinia stage = Vaccinia orthopox stage-specific inhibition; activity change (mCherry), % (no concentration beside the values); AID 1053133; Vaccinia-infected cells, mCherry/Venus stage reporter fluorescence; hits give low values; some inactives read as strong as hits; hit rate 0.01% among 89,000;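 active means mCherry past -33% and 40 or more points under the early reporter, replicates agreeing; inconclusive means past -33% without that gap or agreement; tested in A549 cells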;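 further: scaled between vehicle wells and reference inhibitor wells; 23 nL library stock went into each well; one replicate is shown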
Vaccinia stage Venus = recorded beside Vaccinia stage, whose call it bears; activity change (Venus), %; measured here: Venus reporter, other viral stage;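 negative = less Venus signal; first of two replicates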
* hit, by the source's call; ? = inconclusive; nt = no result given. Not all compounds are listed, so the mix of outcomes need not match the whole.

Value order – Vaccinia stage	Vaccinia stage Venus
1	Cc1ccc(S(=O)(=O)Nc2ccc3c(c2)C(=O)N([C@@H](C)CO)C[C@@H](C)[C@@H](CN(C)C(=O)Nc2ccc(C(F)(F)F)cc2)OCCCC[C@H](C)O3)cc1
  6.9	4.6
2	C[C@H](NC(=O)[C@@H]1[C@@H](CO)[C@@H]2Cn3c(cccc3=O)[C@H]1N2C(=O)C1CCCC1)c1ccccc1
  15.8	16.4
3	CCN1[C@H](C(=O)NC2Cc3ccccc3C2)[C@@H](CO)[C@@H]2Cn3c(ccc(C4=CCCCC4)c3=O)[C@@H]21
  6.5	8.0
4	C[C@@H]1CN([C@H](C)CO)C(=O)Cc2cc(NC(=O)Nc3ccc(C(F)(F)F)cc3)ccc2O[C@@H]1CN(C)CC1CCCCC1
  ?	nt
5	O=C(NC[C@@H]1CC[C@@H]2[C@@H](CN2Cc2cccc(Cl)c2)O1)C1CCOCC1
  2.7	-0.3
6	C[C@H]1CN([C@@H](C)CO)C(=O)c2ccccc2-c2ccccc2CO[C@@H]1CN(C)S(=O)(=O)c1cccc(C#N)c1
  -1.0	-8.0
7	C[C@@H]1CCCCO[C@H](CN(C)C(=O)C2CCCCC2)[C@H](C)CN([C@H](C)CO)C(=O)c2cc(NC(=O)C3CCCCC3)ccc2O1
  -34.8	-38.0
8	CC(C)c1cn(CC[C@@H]2CC[C@@H](NS(=O)(=O)c3ccccc3)[C@H](CO)O2)nn1
  25.2	23.3
9	CC(C)NC(=O)Nc1ccc2c(c1)CC(=O)N([C@@H](C)CO)C[C@@H](C)[C@H](CN(C)C(=O)Nc1ccc(C(F)(F)F)cc1)O2
  3.9	0.4
10	C[C@@H]1CCCCO[C@@H](CN(C)Cc2ccncc2)[C@@H](C)CN([C@H](C)CO)C(=O)c2cc(NC(=O)C3CCCCC3)ccc2O1
  1.4	8.6
11	CC(C)NC(=O)Nc1ccc2c(c1)C(=O)N([C@H](C)CO)C[C@@H](C)[C@@H](CN(C)Cc1ccc(Cl)c(Cl)c1)O2
  -23.3	-17.8
12	C[C@@H]1CN([C@H](C)CO)C(=O)c2cc(NC(=O)Cc3cn(C)c4ccccc34)ccc2O[C@H]1CN(C)S(=O)(=O)c1cn(C)cn1
  7.8	5.8
13	CO[C@H]1CN(C)C(=O)c2ccc(NC(=O)c3ccno3)cc2OC[C@H](C)NC[C@@H]1C
  -3.5	42.5
14	COCC(=O)Nc1ccc2c(c1)C(=O)N(C)C[C@H](OC)[C@@H](C)CN(C(=O)Cc1ccccn1)[C@@H](C)CO2
  3.0	8.6
15	CC(C)CC#Cc1ccc([C@H]2[C@@H](CO)N3C(=O)CN(C(=O)c4ccccn4)C[C@@H]23)cc1
  3.3	1.2
16	CO[C@@H]1CN(C)C(=O)c2cc(NC(=O)C3CCCC3)ccc2OC[C@@H](C)N(C)C[C@H]1C
  -1.0	-2.7
17	O=C(Nc1cc(F)ccc1F)N1CCCCN2[C@H](CO)[C@@H](c3ccc(-c4cccnc4)cc3)[C@H]2C1
  -19.6	-24.6
18	O=C(NC1CCCC1)N1CCCCN2[C@H](C1)[C@H](c1ccc(-c3ccccc3)cc1)[C@@H]2CO
  ?	nt
19	COc1ccc(-c2ccc([C@@H]3[C@@H](CO)N4C(=O)CN(C(=O)C5CCC5)C[C@H]34)cc2)cc1
  -19.7	-4.8
20	C[C@H]1CN([C@@H](C)CO)C(=O)c2cc(-c3cncnc3)cnc2O[C@H]1CN(C)Cc1cncnc1
  22.1	11.3
21	CCCC(=O)Nc1ccc2c(c1)C(=O)N(C)C[C@H](OC)[C@H](C)CN(Cc1ccccc1F)[C@H](C)CO2
  -13.1	-8.2
22	C[C@H]1CN([C@@H](C)CO)C(=O)Cc2cc(NC(=O)CCC(F)(F)F)ccc2O[C@H]1CN(C)Cc1ccc(C(=O)O)cc1
  25.6	15.1
23	C/C=C/c1ccc([C@@H]2[C@@H](CN(CC)C(=O)CN(C)C)N(C(C)=O)[C@H]2CO)cc1
  9.2	4.3
24	C[C@@H]1CCCCO[C@@H](CN(C)Cc2ccncc2)[C@H](C)CN([C@@H](C)CO)C(=O)c2cc(NC(=O)C3CCCCC3)ccc2O1
  -29.7	-21.6
25	C[C@@H]1CN([C@@H](C)CO)C(=O)c2cc(NC(=O)CCCN(C)C)ccc2O[C@@H](C)CCCCO[C@@H]1CN(C)C(=O)Cc1ccccc1
  22.7	16.1
26	COc1cccc(S(=O)(=O)N[C@@H]2CC[C@@H](CC(=O)NCc3ccc(F)cc3)O[C@@H]2CO)c1
  -6.5	-6.7
27	C[C@@H]1CN([C@H](C)CO)C(=O)c2cc(C3=CCCCC3)cnc2O[C@H]1CN(C)C(=O)c1ccncc1
  9.2	0.9
28	CN(C)CC(=O)Nc1ccc2c(c1)[C@H]1C[C@@H](CC(=O)NCc3cc(F)ccc3F)O[C@H](CO)[C@H]1O2
  -3.5	7.1
29	C[C@H]1CN([C@@H](C)CO)C(=O)c2cc(NC(=O)Cn3cnnn3)ccc2O[C@@H]1CN(C)C(=O)Nc1ccccc1
  4.0	1.2
30	C[C@H]1CN([C@@H](C)CO)C(=O)c2cc(NS(=O)(=O)c3cn(C)cn3)ccc2O[C@H]1CN(C)S(=O)(=O)c1ccc(Cl)cc1
  9.2	11.3
31	C[C@@H]1CN([C@@H](C)CO)C(=O)c2cc(NC(=O)Cc3ccccc3)ccc2O[C@@H](C)CCCCO[C@@H]1CN(C)C(=O)Nc1ccc2c(c1)OCO2
  31.7	17.8
32	CCCC(=O)N1C[C@@H]2[C@H](c3ccccc31)[C@H](CO)N2C(=O)CC1CC1
  -3.5	2.3
33	O=C(N[C@H]1C=C[C@H](CC(=O)N2CCCCC2)O[C@@H]1CO)c1ccccn1
  1.2	7.5
34	COc1ccccc1NC(=O)N[C@H]1CC[C@H](CCn2cc(-c3ccccc3OC)nn2)O[C@@H]1CO
  -10.9	-4.6
35	C/C=C/c1ccc([C@H]2[C@H](CO)N(C(=O)CN(C)C)C23CN(C(=O)C2CCOCC2)C3)cc1
  8.1	3.7
36	O=C1CN(S(=O)(=O)Cc2ccccc2)C[C@@H]2[C@H](c3ccc(C#CC4CC4)cc3)[C@H](CO)N12
  -9.9	-8.0
37	C[C@@H]1CN([C@H](C)CO)C(=O)c2cc(N(C)C)ccc2O[C@@H]1CN(C)C(=O)Nc1ccccc1
  11.5	5.7
38	C[C@H]1CN([C@@H](C)CO)C(=O)c2cc(NC(=O)Nc3ccc4c(c3)OCO4)ccc2O[C@H]1CN(C)Cc1ccc2c(c1)OCO2
  2.2	6.8
39	O=C(Nc1ccccc1F)N1CC(=O)N2[C@H](CO)[C@H](c3ccc(C#Cc4ccc(F)cc4)cc3)[C@@H]2C1
  ?	nt
40	COc1ccccc1-c1ccc2c(c1)O[C@@H](CN(C)C(C)=O)[C@@H](C)CN([C@@H](C)CO)S2(=O)=O
  26.0	13.7
41	C/C=C/c1ccc2c(c1)O[C@@H](CN(C)C(=O)Cc1ccccn1)[C@@H](C)CN([C@H](C)CO)S2(=O)=O
  -13.3	-2.8
42	CCNC(=O)C[C@@H]1CC[C@H]2[C@H](COc3ccc(NC(=O)c4ccc(C(F)(F)F)cc4)cc3C(=O)N2C)O1
  -26.2	-22.3
43	CO[C@@H]1CN(C)C(=O)c2cc(NC(=O)C3CCC3)ccc2OC[C@H](C)N(Cc2cccnc2)C[C@H]1C
  -6.8	-0.8
44	CC=Cc1ccc2n(c1=O)C[C@H]1[C@H](CO)[C@@H](C(=O)OC)[C@@H]2N1CC1CCOCC1 (mixture of isomers)
  11.0	4.6
45	C[C@H](O)C#Cc1cnc2c(c1)C(=O)N([C@@H](C)CO)C[C@@H](C)[C@@H](CN(C)C(=O)Cc1ccncc1)O2
  9.6	2.9
46	Cc1noc(C)c1S(=O)(=O)N(C)C[C@@H]1Oc2ccc(NC(=O)CCN3CCOCC3)cc2CC(=O)N([C@@H](C)CO)C[C@@H]1C
  26.5	18.0
47	C[C@H](CO)N1C[C@H](C)[C@@H](CN(C)C(=O)c2ccccc2)Oc2cc(C#CC3(O)CCCC3)ccc2S1(=O)=O
  11.4	-1.7
48	Cc1noc(C)c1NC(=O)N(C)C[C@@H]1Oc2c(NS(=O)(=O)c3cn(C)cn3)cccc2C(=O)N([C@H](C)CO)C[C@@H]1C
  9.1	12.2
49	O=C(NCC[C@@H]1CC[C@H](NC(=O)C2CC2)[C@@H](CO)O1)Nc1ccc(C(F)(F)F)cc1
  0.6	-0.3
50	O=C(Nc1ccc(F)cc1)N[C@H]1C=C[C@H](CC(=O)N2CCOCC2)O[C@H]1CO
  -3.1	10.3
51	COc1ccc(S(=O)(=O)Nc2cccc3c2O[C@H](CN(C)C(=O)NC(C)C)[C@H](C)CN([C@H](C)CO)C3=O)cc1
  6.5	2.7
52	O=C(Cc1ccccc1)N1CC(=O)N2[C@H](CO)[C@H](c3ccc(C#Cc4ccccc4)cc3)[C@H]2C1
  -28.5	-24.5
53	COc1ccc(CN(C)C[C@@H]2OCCCC[C@H](C)Oc3ccc(NS(=O)(=O)c4cccs4)cc3C(=O)N([C@@H](C)CO)C[C@@H]2C)cc1
  -34.1	-31.4
54	CCCNC(=O)Nc1ccc2c(c1)OC[C@@H](C)N(Cc1ccncc1)C[C@@H](C)[C@H](OC)CN(C)C2=O
  14.1	13.8
55	CS(=O)(=O)N1[C@H](C#N)[C@@H](c2ccccc2-c2ccccc2F)[C@H]1CO
  2.2	7.8
56	O=C(O)C[C@@H]1C[C@H]2c3cc(NC(=O)NC4CCCC4)ccc3O[C@H]2[C@@H](CO)O1
  4.1	-0.4
57	CO[C@H]1CN(C)C(=O)c2ccc(NC(=O)NC(C)C)cc2OC[C@@H](C)N(C(=O)C2CCC2)C[C@@H]1C
  6.6	10.5
58	C[C@@H]1CN([C@@H](C)CO)C(=O)Cc2cc(NC(=O)C3CC3)ccc2O[C@H]1CN(C)CC1CC1
  5.2	8.0
59	COc1ccc(CN(C)C[C@H]2OCCCC[C@H](C)Oc3ccc(NC(=O)c4ccccc4)cc3C(=O)N([C@H](C)CO)C[C@@H]2C)cc1
  ?	nt
60	O=C(Nc1cccc(F)c1)N1CC(=O)N2[C@H](CO)[C@@H](c3ccc(-c4ccccc4)cc3)[C@H]2C1
  ?	nt

(cont.)
Value order – Vaccinia stage	Vaccinia stage Venus
61	CCC(=O)N1CCCCN2[C@H](CO)[C@@H](c3ccc(C#CCOC)cc3)[C@H]2C1
  14.7	-0.4
62	CC(C)CC#Cc1ccc2c(c1)O[C@@H](CN(C)C(=O)Cc1ccccc1)[C@@H](C)CN([C@H](C)CO)S2(=O)=O
  ?	nt
63	C[C@H]1CN([C@@H](C)CO)S(=O)(=O)c2ccc(-c3ccncc3)cc2O[C@@H]1CN(C)C(=O)C1CC1
  7.1	4.5
64	CC(C)NC(=O)Nc1ccc2c(c1)CC(=O)N([C@H](C)CO)C[C@@H](C)[C@H](CN(C)Cc1ccc(Oc3ccccc3)cc1)O2
  -5.8	-12.0
65	C[C@@H]1CN([C@@H](C)CO)C(=O)c2c(c3ccccc3n2C)-c2ccccc2CO[C@@H]1CN(C)Cc1cccc(F)c1
  ?	nt
66	O=C(Nc1ccccc1F)N1CC(=O)N2[C@@H](CO)[C@H](c3ccc(C#CC4CC4)cc3)[C@@H]2C1
  4.2	-2.1
67	COCC(=O)Nc1ccc2c(c1)OC[C@H](C)N(Cc1ccccc1OC)C[C@H](C)[C@H](OC)CN(C)C2=O
  -6.2	-4.9
68	Cc1noc(C)c1NC(=O)N[C@@H]1C=C[C@H](CC(=O)Nc2ccccc2)O[C@@H]1CO
  0.1	4.8
69	C[C@@H]1CN([C@H](C)CO)C(=O)c2cc(-c3cccc(F)c3)cnc2O[C@H]1CN(C)C
  17.2	12.1
70	COc1ccc([C@@H]2C=C(C(=O)N3CCCCC3)O[C@H](OCc3ccc(CO)cc3)C2)cc1
  19.5	14.5
71	O=C(C[C@H]1CC[C@@H]2[C@H](COC[C@H](O)CN2C(=O)c2cnccn2)O1)NCc1ccc(F)cc1
  -0.9	5.8
72	COc1ccc2c3c([nH]c2c1)[C@H](CO)N(C)CC31CCN(C(=O)c2ccccn2)CC1
  9.5	7.1
73	C[C@H]1CN([C@@H](C)CO)C(=O)c2cc(NC(=O)Cn3cnnn3)ccc2O[C@@H]1CN(C)Cc1ccc(Cl)c(Cl)c1
  3.3	-2.5
74	COc1ccc(S(=O)(=O)Nc2ccc3c(c2)CC(=O)N([C@H](C)CO)C[C@@H](C)[C@@H](CN(C)C(=O)Nc2cccc4ccccc24)O3)cc1
  24.7	26.5
75	Cc1noc(C)c1NC(=O)Nc1ccc2c(c1)CC(=O)N([C@H](C)CO)C[C@@H](C)[C@@H](CN(C)S(=O)(=O)c1ccc(Cl)cc1)O2
  10.4	13.3

Retrieved one by one from the list above:
Value order – Vaccinia stage	Vaccinia stage Venus
64	CC(C)NC(=O)Nc1ccc2c(c1)CC(=O)N([C@H](C)CO)C[C@@H](C)[C@H](CN(C)Cc1ccc(Oc3ccccc3)cc1)O2
  -5.8	-12.0
74	COc1ccc(S(=O)(=O)Nc2ccc3c(c2)CC(=O)N([C@H](C)CO)C[C@@H](C)[C@@H](CN(C)C(=O)Nc2cccc4ccccc24)O3)cc1
  24.7	26.5
72	COc1ccc2c3c([nH]c2c1)[C@H](CO)N(C)CC31CCN(C(=O)c2ccccn2)CC1
  9.5	7.1

Laid out differently: entries from further up
64: CC(C)NC(=O)Nc1ccc2c(c1)CC(=O)N([C@H](C)CO)C[C@@H](C)[C@H](CN(C)Cc1ccc(Oc3ccccc3)cc1)O2
  Vaccinia stage: -5.8 | Vaccinia stage Venus: -12.0

65: C[C@@H]1CN([C@@H](C)CO)C(=O)c2c(c3ccccc3n2C)-c2ccccc2CO[C@@H]1CN(C)Cc1cccc(F)c1
  Vaccinia stage: ? | Vaccinia stage Venus: nt

66: O=C(Nc1ccccc1F)N1CC(=O)N2[C@@H](CO)[C@H](c3ccc(C#CC4CC4)cc3)[C@@H]2C1
  Vaccinia stage: 4.2 | Vaccinia stage Venus: -2.1
